Screening results deposited in PubChem BioAssay by several laboratories.
Rce1 inh = inhibitors of yeast Ras-converting enzyme | Q03530 | yeast membranes, quenched prenylated peptide cleavage fluorescence | calls only | hit rate 0.27% among 290,000;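 active means fall in fluorescence gain of 50% or more versus controls, with final raw signal at or below 3038400; inconclusive means same 50% fall but final raw signal above 3038400; inactive means fall in fluorescence gain under 50%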;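 further: plate controls were neutral control wells for no effect and wells lacking membranes for full effect; tested at 10 µM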
PABP polyA inh = blocks human PABP binding to poly(A) RNA; P11940; fluorescence polarization; inhibition, % at 35 µM; hit rate 1% among 290,000; AID 2014;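 active means 50% or more with normal probe brightness, or confirmed in later tests; inconclusive means above 50% with abnormal brightness, or retests that disagree; inactive means below 50% or failed in later tests; about a fifth of its hits are not listed in these tables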;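 further: calls also rest on retests at 20 µM and on dose response follow-up; controls were probe without protein and protein plus probe with vehicle; some compounds called inactive have numbers as strong as hits; many hits fall short of the cut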
Target sequence (P11940 whole entry, looked up): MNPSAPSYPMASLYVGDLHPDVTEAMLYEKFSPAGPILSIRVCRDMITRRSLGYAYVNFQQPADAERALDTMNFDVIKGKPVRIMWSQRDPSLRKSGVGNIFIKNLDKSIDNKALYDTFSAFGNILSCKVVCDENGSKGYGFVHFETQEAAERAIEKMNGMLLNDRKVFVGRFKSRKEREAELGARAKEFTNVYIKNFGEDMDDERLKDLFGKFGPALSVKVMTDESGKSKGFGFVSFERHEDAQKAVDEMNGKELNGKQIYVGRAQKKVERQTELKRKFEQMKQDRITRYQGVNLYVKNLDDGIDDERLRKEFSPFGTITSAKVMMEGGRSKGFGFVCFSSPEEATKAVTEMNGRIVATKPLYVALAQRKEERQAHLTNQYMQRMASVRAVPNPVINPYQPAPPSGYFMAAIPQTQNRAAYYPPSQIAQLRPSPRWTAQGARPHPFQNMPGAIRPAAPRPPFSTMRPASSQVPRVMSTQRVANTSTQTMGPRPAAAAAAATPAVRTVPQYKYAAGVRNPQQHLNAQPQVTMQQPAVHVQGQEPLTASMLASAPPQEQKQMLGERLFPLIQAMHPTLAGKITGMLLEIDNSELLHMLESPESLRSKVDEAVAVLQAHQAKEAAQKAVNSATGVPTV
MT1-MMP act inh = inhibitors of human MT1-MMP activation. GFP/RFP ratio change, % at 20 µM. HT1080 RFP-PRO-GFP cells, GFP/RFP ratio fluorescence, overnight; percent of plate control window, DMSO zero. hit rate 0.061% among 360,000;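 active means GFP/RFP ratio change of at least 30% with cell ATP level not reduced by more than half and red fluorescence within 50% of control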; further: strong numbers were not always called active
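Assay system: HT1080 RFP-PRO-GFP cells. Benchmarks: DMSO vehicle wells and RFP-L50D-GFP reporter cell wells. Times: overnight cell settling, then overnight compound exposure, 37 °C, 5% CO2. Compound: 20 µM single dose, 1% DMSO. Read-out basis: GFP/RFP fluorescence ratio.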
Yeast UUG start = alters start codon recognition fidelity in yeast; AID 602363; hit rate 0.13% among 350,000; activity score, % at 18.7 µM; S. cerevisiae UUG-firefly luciferase reporter, luminescence/redox ratio;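 active means replicate mean at a twofold rise or more, about +100% in these data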;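 further: firefly luciferase made from a UUG start codon reports start codon fidelity; reporter light over untreated wells divided by growth signal over untreated wells; some hits fall short of that in this replicate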
Env fusion inh = inhibitors of HIV Env-mediated cell fusion | HeLa-JRFL Env/CEM21 cell fusion, luciferase | inhibition, % at 12.3 µM | hit rate 1.1% among 360,000;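 active means mean replicate inhibition score of at least 50 and every replicate individually at or above 50; inconclusive means only one of the two criteria met; inactive means mean below 50 and not all replicates reaching 50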;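 further: 0% = plate neutral controls and 100% = maraviroc near 300 nM; one replicate is shown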
eIF4H inh = inhibitors of RNA binding by human eIF4H | Q15056 | eIF4H fluorescence polarization binding assay | inhibition, % at 35 µM | hit rate 0.94% among 290,000 | AID 2012;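 active means 50% or more with normal probe brightness, or confirmed in later tests; inconclusive means above 50% with abnormal brightness, or retests that disagree; inactive means below 50% or failed in later tests; about a fifth of its hits are not listed in these tables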;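 further: calls also rest on retests at 20 µM and on dose response follow-up; 0% = protein and probe with vehicle and 100% = probe without protein; strong numbers were not always called active; many hits fall short of the cut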
CSC inhib = cancer stem cell inhibition | cancer stem cell-like cells viability, luminescence | inhibition, % at 7.5 µM | hit rate 1.1% among 300,000 | AID 2717;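 active means mean at 75% or more and at least half the replicates too; inconclusive means mean and replicates disagree; tested in HMLE shEcad cells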;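 further: 0% = median of negative and 100% = median of positive control wells; the first replicate is given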
eIF4H inh retest = recorded beside eIF4H inh, whose call it bears; inhibition, %; compound at 20 µM; confirmation average;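 mean of two retest wells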
PABP polyA inh retest = further read-out of PABP polyA inh, marked with its call; inhibition, %; compound at 20 µM; confirmation repeats;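 mean of two retest wells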
MT1-MMP act inh RFP = recorded beside MT1-MMP act inh, whose call it bears; RFP signal change, %; measured here: RFP expression control read;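 0 = vehicle wells; hits needed this value within 50% of zero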
An asterisk follows results filed as active; i = inactive; ? = inconclusive; nt = no result given; & = joins results of further samples. An excerpt, so the mix of outcomes need not match the whole.

SMILES	Rce1 inh	PABP polyA inh	MT1-MMP act inh	MT1-MMP act inh RFP	Yeast UUG start	Env fusion inh	eIF4H inh	CSC inhib	others
COc1ccc(N=C(N(C)C)P(=O)(N(C)C)N(C)C)cc1	i	-2	2&-3	2&-1	-14	8&6	-1	-3
O=C(CCn1ccc2cc(S(=O)(=O)N3CCCC3)ccc21)NCc1cccc(F)c1	i	1	0	0	1	-3	-12	-12
O=C(NN1CCOCC1)c1cccc(Cl)c1	i	4	4	5	-10	7	8	-7
Oc1ccccc1CNc1ncc(Br)cc1Br	i	-5	2	4	-15	nt	5	39
CC(C)(O)C(=O)NNC(=S)Nc1ccc(F)c(Cl)c1	i	1	-1	0	nt	13	3	-8
O=C1CC(C(=O)NCc2ccccc2)C2(CCCC2)O1 (stereo not drawn)	i	-8	0	1	-6	-16	6	-6
Cc1ccc([N+](=O)[O-])c2c1C(N1CCCC1)C(C)(C)O2 (stereo not drawn)	i	22	-5	-2	nt	-15	-4	19
CC(NC(=O)CSc1ncnc2nc[nH]c12)c1ccccc1 (stereo not drawn)	i	5	-6	4	-14	-116	-6	-10
COc1ccc(NC(=S)N2CCC(C(=O)c3ccc(F)cc3)CC2)cc1	nt	nt	9	4	-32	21	nt	nt
O=C(COC(=O)c1ccccc1Br)Nc1nnc(-c2ccccc2)o1	i	nt	4	3	-26	-2	nt	6
O=c1[nH]c2ccccc2n1CCCSc1cnc2ccccc2n1	i	1	-3	-8	nt	nt	-13	16
Cc1ccc(S(=O)(=O)NCC(=O)OCC(=O)N2CCc3ccccc32)cc1	i	-2	3	7	-3	nt	-7	nt
COCC(=O)NCCc1nc(-c2ccccc2)cs1	i	-7	-3	-1	-15	nt	-11	-5
CC1(C)CC(=O)C2=C(C1)N(CCN1CCOCC1)C1=C(C(=O)CC(C)(C)C1)C2c1cccc(Cl)c1	i	-4	-3	-5	-17	-41	-10	-18
CCCn1nc(C(=O)Nc2ccc3nc(N4CCOCC4)sc3c2)ccc1=O	nt	nt	9	-25	2	85*	nt	nt
CCOC(=O)Cc1csc(NC(=O)c2ccoc2C)n1	i	4	-7	-7	-11	-38	-16	2
O=C(O)C(=O)/C(=C\c1ccc([N+](=O)[O-])cc1)c1ccc2ccccc2n1	i	3	-50	-3	nt	-52	10	7
CCOC(=O)CSc1nnc(CNC(=O)Cc2ccccc2)n1-c1ccccc1OC	nt	10	1	2	nt	nt	1	10
CCn1nc(C)cc1C(=O)NC1CCCc2c1cnn2-c1cc(F)cc(F)c1 (stereo not drawn)	i	5	-3	-12	-2	-10	-2	-6
O=C(Nc1cccc(S(=O)(=O)N2CCCCC2)c1)c1cc([N+](=O)[O-])ccc1N1CCOCC1	i	nt	15	-4	-9	11	nt	nt
COc1ccc(F)cc1-c1cc(NC=O)c2ncc(-c3cc(OC)c(OC)c(OC)c3)n2c1	nt	nt	6	-11	-11	-125	nt	nt
O=C1NN(c2cccc(Br)c2)C(=O)/C1=C/c1ccc(-c2cc([N+](=O)[O-])ccc2O)o1	i	47	28	4	nt	nt	96*	2	eIF4H inh retest=95*;PABP polyA inh retest=12
CCN(C[C@H]1N[C@@](CC)(C(=O)OC)[C@H]2C(=O)N(C)C(=O)[C@@H]12)C(C)=O	nt	nt	0	4	3	-8	nt	nt
COc1ccc(C2=NCCNC(C(F)(F)F)=C2)cc1	i	-12	6	5	nt	-7	2	5
CC(C)(C)c1ccc(-c2nnc(SCCN3C(=O)c4ccccc4C3=O)o2)cc1	i	-5	1	5	-24	nt	-6	14
COc1cc2cnc(-c3ccsc3)cc2cc1OC	nt	nt	5	8	3	-10	nt	nt
CC(C)n1cnc2c(Nc3cccc(F)c3)nc(NCCO)nc21	i	10	-13	-5	-22	1	-1	-13
NC1=NC2(CCCCC2)N=C(Nc2ccc(F)cc2F)N1	i	7	-2	7	-24	-165	7	-4
CSc1nnc(C)c(=O)n1COC(=O)COc1ccccc1C	i	-4	5	3	nt	18	-5	-4
Cc1ccc(OCC(=O)Nc2ccc(C)c(S(=O)(=O)N3CCCCCC3)c2)c([N+](=O)[O-])n1	i	-6	7	-8	-6	3	-6	0
Cc1ccc(N(CC(=O)NC2CCCCC2C)S(=O)(=O)c2c(C)nn(C)c2C)cc1 (stereo not drawn)	i	-13	-3	2	-2	6	1	-15
Cc1cccn2c(=O)nc(SCC(=O)N3CC(C)OC(C)C3)nc12 (stereo not drawn)	i	nt	0	6	-7	12	nt	-8
Cc1cc(NC(=O)c2noc3c2CCCC3)nn1Cc1ccc(Cl)cc1	i	1	-2	-14	-15	0	-2	6
CCOc1ccccc1N1CC(C(=O)N2CCc3ccccc32)CC1=O (stereo not drawn)	i	-3	6	0	nt	nt	-3	-26
Cc1ccc2nc(-c3ccc(-c4cccc(Cl)c4)cc3)c(NCc3ccccc3)n2c1	i	nt	10	-6	-8	0	nt	91*
CCOC(=O)C1=C(C)OC(N)=C(C#N)C1c1cc2c(cc1Br)OCO2 (stereo not drawn)	i	13	-2	-2	-11	5	-10	19
COc1ccc(C2NC(=O)CCC2[N+](=O)[O-])c(OC)c1OC (stereo not drawn)	i	-9	5	4	-1	4	4	-15
Cc1c(C(=O)Nc2ccncc2)sc2nc(-c3ccccc3)cn12	i	-7	-3	-25	-3	44	-2	19
O=C(O)c1ccccc1C(=O)c1cccc2ccccc12	i	-7	-2	1	-6	-10	9	-7
CC(=O)c1cc(C#N)c(N2CCCCC2)nc1C	i	4	0	2	-10	-23	-4	1
CCOC(=O)N1CCC(NC(=O)C2CCN(C(=O)N3CCOc4ccccc43)CC2)CC1	i	-4	-2	-1	-16	21	-3	-8
NS(=O)(=O)c1ccc(CCNC(=O)c2cc([N+](=O)[O-])ccc2N2CCOCC2)cc1	nt	nt	2	12	26	nt	nt	-8
Cc1nc([N+](=O)[O-])c(Br)n1CC(=O)c1ccc(F)cc1	nt	10	6	-9	nt	13	-1	nt
CCN1C(=O)[C@H]2[C@@H](c3ccc(-c4ccc(F)cc4)c(OC)c3)N[C@@](CC(C)C)(C(=O)OC)[C@H]2C1=O	i	nt	nt	nt	nt	3	nt	25
CCCCn1c(C2CCCCC2)nc2cc3[nH]c(=O)c(C(C)C)nc3cc21	i	27	-13	-3	-12	-17	14	81*
CCOC(=O)C(C(=O)OCC)C1CS(=O)(=O)CC1C(C(=O)OCC)C(=O)OCC (stereo not drawn)	i	-1	5	4	-43	nt	-4	-2
C[C@H]1CN(Cc2ccccc2)C(=O)[C@@H]1CC(=O)NCc1ccccc1	i	15	8	1	4	-2	20	-11
Cc1noc(C)c1COc1ccc(C(=O)OCC(=O)c2ccc3c(c2)OCCO3)cc1	i	-6	4	-5	-8	-464	-4	-5
Fc1ccc(-c2nc(-c3cccs3)no2)cc1	i	-12	2	2	nt	-80	10	-27
CCCCCCC1CCC(C(=O)N2CCOCC2)CC1 (stereo not drawn)	i	-3	1	-1	nt	-2	9	-5
Clc1ccc2[nH]c3c(NCCN4CCOCC4)ncnc3c2c1	i	-2	9	-2	-10	nt	-7	-7
Cc1ccccc1NS(=O)(=O)c1ccc(C(=O)N2CCN(c3ccccc3O)CC2)cc1	i	26	5	-2	11	24	-12	-7
COC(=O)[C@H](C)NC(=O)NC1CCN(Cc2ccccc2)CC1	i	1	6	5	-17	-118	1	-4
COC(=O)c1c(NC(=O)CN2CCN(c3ccccc3Cl)CC2)sc(C)c1C	i	-7	-2	2	nt	13	9	50
Cc1cc(C)cc(NC(=O)Nc2ccc(-n3ccc(C(F)(F)F)n3)cc2)c1	i	-4	7	-1	-7	-31	6	104*
COc1ccc(-c2nn3c(-c4ccccn4)nnc3s2)cc1OC	i	6	1	3	-17	-86	-8	-18
O=C(OCC(=O)N1CCN(C(=O)c2ccco2)CC1)c1ccccc1C(=O)c1ccc(Cl)cc1	i	3	1	-5	12	nt	-2	nt
CC1(C)NC(=O)N(CC(=O)N2CCN(c3cccc(C(F)(F)F)c3)CC2)C1=O	nt	nt	-3	-9	-12	28	nt	-4
Cc1ccc(N2C(=O)CC(N3CCN(S(=O)(=O)c4ccccc4)CC3)C2=O)c(C)c1 (stereo not drawn)	i	4	-1	4	-1	-21	0	4
CCCSc1ncccc1C(=O)O	i	-1	-2	3	-10	1	-3	-1
Other records.
SMILES	Rce1 inh	PABP polyA inh	MT1-MMP act inh	MT1-MMP act inh RFP	Yeast UUG start	Env fusion inh	eIF4H inh	CSC inhib	others
C1CN(CC23CC4CC(CC(C4)C2)C3)CCO1	nt	24	5	7	-17	nt	10	-1
CC(C)(C)c1ccc(C(=O)CC(=O)c2cc(Cl)ccc2O)cc1	i	0	0	-13	-14	83*	-1	3
COc1ccc(NC(=S)NC(NC(=O)c2ccccc2Cl)C(Cl)(Cl)Cl)c([N+](=O)[O-])c1 (stereo not drawn)	i	14	11	-1	-15	nt	0	29
Cc1ccc(NC(=O)NC2CCN(CC(=O)Nc3nccs3)CC2)cc1	nt	-2	2	1	-12	6	-3	6
O=C(Nc1cccc(S(=O)(=O)N2CCCCCC2)c1)c1ccc(=O)[nH]c1	nt	nt	3	-8	-5	-2	nt	nt
Cc1ccc(NC(=O)[C@@H]2CCCN2S(=O)(=O)c2ccccc2C(F)(F)F)cc1S(=O)(=O)N1CCOCC1	i	-13	-1	-1	nt	57*	10	9
O=C1OC[C@H]2CCCN2C(=O)[C@@H](CC(=O)N(CCO)Cc2ccccc2)C/C=C\C[C@@H]1Cc1ccc(F)cc1	nt	nt	2	-2	8	-55	nt	nt
CC1(C)NC(=O)N(CC(=O)Nc2nc(-c3ccc(F)cc3)cs2)C1=O	i	-3	3	1	-7	-17	2	-6
Fc1ccc(Sc2ccccc2CNC2=NCCN2)cc1	i	9	-10	-11	-11	nt	-1	-2
CCO[C@@H]1OC(C(=O)N2CCN(C)CC2)=C[C@H](c2coc3ccccc3c2=O)[C@H]1CCCO	i	-9	-5	-4	-4	17	6	5
O=C(COc1cccc(F)c1)N1c2ccccc2Sc2ccccc21	i	-3	0	0	-8	nt	-3	8
COC(=O)C(CC(C)C)NC(=O)C(N)Cc1ccccc1 (stereo not drawn)	i	-1	-1	5	-24	-35	-2	-9
O=c1cc(CN2CCOCC2)c2cc(Cl)ccc2o1	i	1	0	1	-9	14	-7	-10
CCOC(=O)Cc1csc(NC(=O)COC(=O)/C=C/c2ccc(OC)cc2)n1	nt	nt	9	0	-8	-4	nt	-12
COC(=O)c1ccc(Cn2c(C)c(C(=O)NCc3ccc(Cl)c(Cl)c3)sc2=O)o1	nt	nt	6	-19	-1	15	nt	nt
Cc1cc(-c2nnc(SCc3cccnc3)o2)no1	i	-4	-1	8	-27	nt	7	-10
COc1ccc(-n2c(C)cc(C(=O)CCl)c2C)cc1	i	-6	-3	-3	-4	-132	-4	95*
c1ccc(N2CCOCCOCCOCCOCCOCC2)cc1	i	-7	3	3	nt	-23	4	-12
COc1ccc(NC(=O)c2cccc(OC(F)F)c2)cc1Cl	i	14	4	-3	-1	-96	2	10
CCCCNC(=O)COC(=O)c1ccc(Cl)c(S(=O)(=O)N2CCCC2)c1	i	0	-4	-1	-18	-13	1	-1
Cc1ccc([C@@H]2[C@@H]3C(=O)N(C)C(=O)[C@@H]3[C@]3(Cc4ccccc4)C(=O)N(Cc4ccccc4)CC(=O)N23)o1	i	0	0	-1	-6	?	3	0
CN1CCC(OC(=O)COc2ccccc2)CC1	i	2	4	11	4	-24	-4	-7
